Biofilm kill mix: mixture kills Candida albicans biofilm cells; C. albicans biofilm persisters + clotrimazole, fluorescence viability; primary screen in compound mixtures of four per well; inhibition, % at 7.6 µM; 0.02% of 120,000 active;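 active = inhibition above 30.3% in the primary screen of four-compound pools, then above 30% when the compound was retested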;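 also: compounds exposed to preformed 24 h biofilms for 48 h; the number belongs to the whole pool; some results filed as inactive read as strong as hits; inactives centre near 12; 0% = biofilm with clotrimazole alone and 100% = kill control; retested singly at about 60 µM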
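Test system: C. albicans CAF4-2 wild-type biofilms; buffer or medium: RPMI/MOPS medium, pH 7.0; schedule: 24 h biofilm formation, then 48 h compound exposure, 37 °C; detection: Alamar Blue fluorescence; measure: percent inhibition of biofilm viability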
* = called active by the depositor. The list is partial (hit frequency here may not be typical).

SMILES	Biofilm kill mix
COc1ccc(N=Nc2nc3cc(Br)c(Br)cc3n2C)c(OC)c1	3
Cc1ccc(NC(=O)CN2C(=O)NC3(CCCc4ccccc43)C2=O)cc1S(=O)(=O)N1CCOCC1 (stereo not given)	-5
Nc1ccc2oc(-c3ccccc3Cl)nc2c1	17
Cn1c(=O)[nH]c(=O)c2c1nc(NCc1ccco1)n2Cc1ccccc1Cl	0
O=C1CS/C(=N/N=C/c2ccccc2)N1Cc1ccco1	13
Clc1ccccc1Cc1noc(CN2CCSCC2)n1	-7
CCN(Cc1ccncc1)Cc1c(O)ccc2ccccc12	6
CCC(C)C(NC(=O)c1ccccc1NC(=O)c1ccccc1)C(=O)N1CCOCC1 (stereo not given)	9
COc1ccc(/C=N/Nc2nc(N)cc(Cl)n2)cc1OC	16
CCC1CCCCN1CCCNC(=O)c1cc2c(Cl)nc3ccccc3c2s1 (stereo not given)	9
N#CN=C(N)c1ccccc1	18
CCCCc1nnc(NC(=O)COC)s1	7
CCCCNC(=S)NNC(=O)c1ccco1	9
O=C(Nc1sc2c(c1C(=O)O)CCC2)c1ccc(F)cc1	15
CCSc1nnc(C)c(=O)n1COC(=O)c1ccc(S(=O)(=O)N2CCCC2)cc1	13
NC(=O)c1c(NC(=O)c2ccncc2)sc2c1CCCC2	10
CNC(=O)[C@@]1(C)C=C[C@@H](Cc2ccccc2)N1C(=O)OC	8
Clc1cccc(CSc2ncn(-c3ccccc3)n2)c1	11
CN(C)c1ccc(/C=N/N(Cc2ccccc2)c2ccccc2)cc1	11
CCOC(=O)c1cc(C(=O)OCC)c(=O)[nH]c1N1CCCC1	12
Cc1nc(CNC(=O)CC2C(=O)NCCN2Cc2cccc(Oc3ccccc3)c2)cs1 (stereo not given)	10
CC(C)Cc1nnc(NC(=O)CCC(=O)Nc2ccccc2F)s1	24
O=C(/C=C/c1ccc2ccccc2n1)c1cc(Br)ccc1O	16
O=C(Nc1cccc(F)c1)c1cc(S(=O)(=O)N2CCC3(CC2)OCCO3)ccc1F	17
CCc1ccccc1NC(=S)NCCSc1ccc(Cl)cc1	1

(further entries)
SMILES	Biofilm kill mix
NC(=O)CC(NC(=O)Cc1cccc2ccccc12)c1ccc(N2CCN(c3ccccc3)CC2)c([N+](=O)[O-])c1 (stereo not given)	17
CCCC(=O)OCC(=O)NC1CCCc2ccccc21 (stereo not given)	15
CCO[C@@H]1OC(C(=O)NC2CC2)=C[C@H](c2c[nH]c3ccccc23)[C@H]1CCCO	18
Cc1ccc(C)c(OCC(=O)Nc2ccc(S(=O)(=O)Nc3ccccn3)cc2)c1C	14
CC(=O)Nc1ccc(NC(=O)CSc2ncnc3c2cnn3Cc2ccccc2)cc1	20
N#Cc1ccc(NC(=O)CNc2cc(S(=O)(=O)N3CCOCC3)ccc2NCC2CCCO2)cc1 (stereo not given)	11
O=C(c1ccccc1Br)N1CCN(c2ccc([N+](=O)[O-])c(N3CCOCC3)c2)CC1	14
CCO[C@H]1OC(C(=O)N2CCN(C)CC2)=C[C@@H](c2ccc3c(c2)OCO3)[C@@H]1CCCO	14
Cc1ccc(S(=O)(=O)NCC(=O)OCC(=O)Nc2ccccc2OC(F)F)cc1	-4
Cc1ccc(NC(=O)C2CCCCC2)c(O)c1	8
COc1cc2nc(Cl)nc(N3CCCCC3)c2cc1OC	14
Cc1ccc(S(=O)(=O)Nc2ccncc2)c(C)c1N(C)S(=O)(=O)c1ccc(F)cc1	16
Cc1noc(C)c1S(=O)(=O)Nc1ccccc1OC(F)(F)F	20
CCOC(=O)NC(=O)c1cn(CCNCCO)c(=O)[nH]c1=O	15
CC(C)NC(=O)COc1ccc(S(=O)(=O)N(C)Cc2ccccc2)cc1	22
COc1cc(/C=N/S(=O)(=O)CCc2ccccc2)ccc1O	13
CCN(CC)S(=O)(=O)c1ccc(C(=O)N2CCc3ccccc32)cc1	7
CCC(C)c1ccc(NC(=O)C/C(C)=N/NC(=O)c2cnccn2)cc1 (stereo not given)	8
Cn1nccc1C(=O)Nc1cccc(C(F)(F)F)c1	16
O=C(NNC1=NCCN1Cc1ccccc1)c1cccc(C(F)(F)F)c1	20
CC(=O)/C(=N\Nc1ccccc1)Sc1nncn1C	18
C=C(C)CCC1(C)NC(=O)N(c2ccccc2)N1 (stereo not given)	13
CC(C)(C)C1CCC(=NNC(=S)Nc2cccnc2)CC1 (stereo not given)	7
CCOc1cc(/C=C2\SC(=O)N(CC(=O)Nc3ccccc3F)C2=O)cc([N+](=O)[O-])c1O	49
COc1ccc(Nc2oc(-c3ccccc3)nc2C#N)cc1	14

Continuation:
SMILES	Biofilm kill mix
C[C@]12CCC(=O)C=C1[C@H](O)C[C@@H]1[C@@H]2[C@@H](O)C[C@@]2(C)[C@H]1CC[C@]2(O)C(=O)CO	10
Cc1ccccc1-n1c(=O)c2ccccc2n2c(=O)[nH]nc12	13
O=C(CCS(=O)(=O)c1ccccc1)Nc1ccc(-c2nc3ccccc3s2)c(O)c1	12
CCCCS(=O)CC(COC)OC(=O)c1ccccc1 (stereo not given)	5
O=C(c1ccccc1Cl)N(Cc1ccc(Cl)c(Cl)c1)N1C(=O)CCCC1=O	14
CC(C)(C)C(=O)Nc1cc(S(=O)(=O)Nc2ccc(Cl)cc2)ccc1O	16
O=C(CCC1CCCN(C(=O)c2ccsc2)C1)N1CCN(c2ccccn2)CC1 (stereo not given)	20
Cc1ccnc2nc(C(=O)Nc3nnc(-c4ccccc4)o3)nn12	2
CNCC(O)COc1cccc(OC)c1 (stereo not given)	6
CC1CCCCN1C(=O)c1ccccc1OC1CCN(S(C)(=O)=O)CC1 (stereo not given)	-8
COc1ccc(-c2[nH]c(-c3ccccc3)nc2SCC(=O)NC2CCCC2)cc1	20
C=CCNC(=S)NNC(=O)c1ccncc1	-3
Cc1cc(C)n2cc(CSc3nc4ccccc4s3)nc2n1	6
O=C(Nn1cnc2ccccc2c1=O)c1ccc([N+](=O)[O-])cc1	9
CC1COC(C)(CC(=O)NN2C(=O)c3ccccc3C2=O)O1 (stereo not given)	11
COc1ccc(-c2cn3cccc(C)c3n2)cc1Br	13
O=C(Cn1c(=O)sc2ccccc21)OC(CCl)CCl	-9
O=C(c1cc(F)ccc1F)C1CCCN(C(=O)CCc2cnccn2)C1 (stereo not given)	-4
CCC(C)Sc1nc2ccccc2c(=O)[nH]1 (stereo not given)	17
COc1ccc(S(=O)(=O)N(CC(=O)NCc2cccnc2)c2ccc(F)cc2)cc1OC	17
CCCCNC(=O)C(=O)N/N=C/c1ccc(OCc2ccccc2)cc1	18
Cc1cccc(NC(=O)C2CCCN(S(=O)(=O)c3cccc4nonc34)C2)c1 (stereo not given)	3
COc1ccccc1NC(=O)c1ccc(-c2nn(C)c(=O)c3ccccc23)cc1	4
O=C(O)c1nnn(-c2ccc([N+](=O)[O-])cc2)c1-c1ccccc1	7
COc1ccc(CCNC(=S)Nc2ccc(OC)cc2)cc1	15

Next part
SMILES	Biofilm kill mix
COC(=O)c1ccccc1NC(=S)NC(=O)COc1ccc(C(C)C)cc1	2
CC1=C(C(=O)OCC2CCCO2)C(c2ccc(C)cc2)C2=C(CCCC2=O)N1 (stereo not given)	9
N#CC(C#N)=C(N)CSc1cccc[n+]1[O-]	10
CC(C)c1ccc(NC(=O)c2ccc(NS(C)(=O)=O)cc2)cc1	28
Cc1ccc(N2C(=O)N(CC(=O)NC(N)=O)C(=O)C2C)cc1 (stereo not given)	7
Cc1sc(NC(=O)Cc2ccc3c(c2)OCO3)nc1-c1ccc2c(c1)CCN2C(=O)c1ccc(F)cc1	3
C=CCNC(=S)N1CCN(Cc2ccccc2)CC1	25
Cc1c(C(=O)C(=O)NCC2CCCO2)c2ccccc2n1C (stereo not given)	2
CC(C)CC(NC(=O)C(NC(=O)C1OC2OC(C)(C)OC2C2OC(C)(C)OC12)C(C)C)C(=O)O (stereo not given)	-18
COc1cc(O)c(CC=C(C)C)c(O)c1C(=O)CCc1ccc(O)cc1	18
Cn1c(NNC(=O)c2c(F)cccc2F)cc(=O)n(C)c1=O	13
O=C(O)C1CCN(C(=O)c2ccco2)CC1	-2
CN(C)S(=O)(=O)c1cccc(N=C2SCCN2Cc2ccccc2)c1	13
COc1cc2[nH]c(=S)nc(NCCC(C)C)c2cc1OC	15
Cc1ccc(C)c(C(=O)CN2C(=O)NC3(CCCCCCC3)C2=O)c1	7
COc1cc(NC(=O)CCC2CCCC2)cc(-n2cnnn2)c1	15
Cc1ccc(SCc2cn3c(C)cc(C)nc3n2)cc1	26
CCSc1ccc(C(=O)Nc2ccc(Br)cn2)cc1[N+](=O)[O-]	18
O=C(COC(=O)c1cnc(Cl)c(Cl)c1)NCc1cccs1	7
COC(=O)c1ccc(C23CC4(C2)[C@H](CN(Cc2cccnc2)[C@@H]4c2ccccc2)C3c2ccc(Cl)nc2)cc1 (stereo not given in full)	15
Cc1ccc[n+](-c2nc3ccccc3nc2C(=C=[N-])C#N)c1	8
O=c1[nH]c(=S)[nH]c2c1C(c1cc([N+](=O)[O-])c(N3CCOCC3)cc1N1CCOCC1)O2 (stereo not given)	8
O=C(/C=C/c1ccc(Cl)cc1)N1CCN(c2ccccc2[N+](=O)[O-])CC1	14
COc1ccc(CC(=O)Nc2nccs2)cc1OC	11
Cc1nnc(NC(=O)CSc2ccc(-c3ccc(Cl)cc3)nn2)s1	8

A draw from above in order of length of the SMILES, ascending:
SMILES	Biofilm kill mix
COc1ccc(CC(=O)Nc2nccs2)cc1OC	11
COc1ccc(-c2cn3cccc(C)c3n2)cc1Br	13
COc1ccc(Nc2oc(-c3ccccc3)nc2C#N)cc1	14
O=C(COC(=O)c1cnc(Cl)c(Cl)c1)NCc1cccs1	7
O=C(Nc1cccc(F)c1)c1cc(S(=O)(=O)N2CCC3(CC2)OCCO3)ccc1F	17

Returning to the listing; the three compounds before the break are reprinted first.
SMILES	Biofilm kill mix
O=C(/C=C/c1ccc(Cl)cc1)N1CCN(c2ccccc2[N+](=O)[O-])CC1	14
COc1ccc(CC(=O)Nc2nccs2)cc1OC	11
Cc1nnc(NC(=O)CSc2ccc(-c3ccc(Cl)cc3)nn2)s1	8
CCN(C(=O)Cc1c(C(=O)O)n(C)c2ccccc12)c1ccc(F)cc1	2
Cn1c(SCc2cc(=O)[nH]c(C(C)(C)C)n2)nnc1C(F)(F)F	16
COc1ccc(/C=C2/SC(=O)N(CCNC(=O)C3CCCN3C(=O)c3cccs3)C2=O)cc1 (stereo not given)	6
CC(=O)N(C(C)=O)c1ncnc2c1c(-c1ccc(Cl)cc1)nn2C(C)(C)C	-2
O=[N+]([O-])c1cccc(Cl)c1NCCNS(=O)(=O)c1ccc(Cl)cc1	19
O=C(O)Cc1sc(Nc2ccc(F)cc2)nc1-c1cccs1	13
Cc1ccc2nc(CSc3nnc(Nc4ccccc4C)s3)cc(=O)n2c1	0
Cc1c(NC(=O)c2cccc(-c3cc4ccccc4oc3=O)c2)cccc1-c1nc2ncccc2o1	15
CCOC(=O)c1c(/N=C/C2C(=O)CCCC2=O)sc2c1CCCC2	8
Cc1ccc(C)n1-c1ccc(NC(=O)c2ccccc2)cc1	3
O=C(NCCc1nnc2ccc(NCc3ccccc3Cl)nn12)c1ccccc1	12
O=C(O)CSCC(=O)NCc1ccc(Cl)cc1Cl	8
Cc1ccnc(SCC(=O)c2cccc([N+](=O)[O-])c2)n1	15
COC(=O)c1cn(NC(=O)Cn2nc([N+](=O)[O-])c(Cl)c2C)c(=O)c2ccccc12	11
COC(=O)c1cccc(C23CC4(C2)[C@H](CN(Cc2ccc(C(F)(F)F)cc2)[C@@H]4c2ccccc2)C3c2ccccc2)c1 (stereo not given in full)	15
COc1ccnc(Oc2ccccc2)c1C(=O)N/C=N/OCc1ccccc1F	-1
CCNC(=O)OCCC12CC3CC(CC(C3)C1)C2	-9
CCN(CC)CCNC(=O)c1ccc(NC(=O)c2ccc(F)cc2)cc1	8
Cc1ccc(/C=N/Nc2ccc(C(=O)O)cc2)s1	20
Cc1cccc(OCC(=O)Nc2ccc(S(=O)(=O)Nc3ccccn3)cc2)c1	17
COc1ccc(OC)c(CNc2ccc([N+](=O)[O-])cc2C)c1	7
CCOc1ccc(NC(=O)Nc2ccc(Br)cn2)cc1	11
CCCCN(C(C)=O)c1c(N)n(CCC)c(=O)n(CC(=O)Nc2cc(Cl)cc(Cl)c2)c1=O	16
CCOc1ccc(NC(=S)N(CCc2c(C)[nH]c3ccccc23)Cc2cccnc2)cc1	16
CCC(C)N1C(=O)CN(C2CCCCCC2)C(=O)C1c1ccccc1F (stereo not given)	16

Among those listed so far, 5 contain a CF3 group.
SMILES	Biofilm kill mix
Cc1noc(C)c1S(=O)(=O)Nc1ccccc1OC(F)(F)F	20
Cn1nccc1C(=O)Nc1cccc(C(F)(F)F)c1	16
O=C(NNC1=NCCN1Cc1ccccc1)c1cccc(C(F)(F)F)c1	20
Cn1c(SCc2cc(=O)[nH]c(C(C)(C)C)n2)nnc1C(F)(F)F	16
COC(=O)c1cccc(C23CC4(C2)[C@H](CN(Cc2ccc(C(F)(F)F)cc2)[C@@H]4c2ccccc2)C3c2ccccc2)c1 (stereo not given in full)	15

Next part
SMILES	Biofilm kill mix
O=C(COc1ccc(Br)cc1CNC1CCCCC1)NCCc1ccccc1	5
Cc1ccc(OCC(=O)N2CCN(C(=O)c3ccc([N+](=O)[O-])cc3)CC2)cc1	28
COc1ccc(/C=N/N2C(=N)SCC2=O)cc1	27
Cn1ccnc1C(=O)c1cc(SCC(=O)NCc2ccccc2)nc2ccccc12	1
Cc1ccc(Nc2c(-c3ccccc3O)nc3ncccn23)cc1	21
C/C(=N\NC(=S)NC(C)C)c1ccc(C(C)(C)C)cc1	17
C/C(=N/NC(=O)C1COc2ccccc2O1)c1ccc(Br)s1 (stereo not given)	10
O=C(NCCC1=CCCCC1)C(=O)NCC(c1ccco1)N1CCN(c2ccc(F)cc2)CC1 (stereo not given)	4

Screens: PubChem BioAssay, PCMD
